D2 PAM: potentiates the human D2 dopamine receptor allosterically; P14416; DiscoveRx D2 beta-arrestin cells, luminescence, 90 min; 100% = 57 uM dopamine signal; potentiation, % (test concentration not listed); 0.23% of 360,000 active; AID 624464; active = potentiation of 50% or more; inconclusive = 30% to 50%; inactive = 30% or less;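 note: compound concentration not given in the record; tested on top of an EC20 dose of dopamine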
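D2 cells co-treated with compound plus 50 nM dopamine (EC20) for 90 min at 37 deg C to detect potentiation. Beta-arrestin recruitment was read as enzyme-fragment luminescence after 1 h at ambient temperature. Full response was set by 57 uM dopamine.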
TRPML1 inh: inhibitors of human TRPML1 channel. TRPML1-inducible cells, Ca2+ dye fluorescence, FDSS; active compounds read low; inhibition of EC80 agonist-evoked calcium signal. activity change, negative = inhibition, % (test concentration not listed). 0.02% of 390,000 active. AID 624415; in the data active means activity change below about -50%; inconclusive means about -30% to -50%; inactive means above about -30%;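 note: stimulus is agonist 54-4 at its EC80 concentration; % is set by controls: 0 for no effect and ±100 for the full control effect; compound concentration not given in the record; the text of the record puts the active cut at -80%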
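Calcium fluorescence in TRPML1-DL cells induced overnight with Tet: a 110 s read after compound pin addition, then a 110 s antagonist read after challenge with 54-4 at 4 uM final (EC80).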
TRPML1 agonist: activates the human TRPML1 channel; activation, % (concentration not given with the values); Q9GZU1; TRPML1-expressing cells, Ca2+ dye fluorescence, FDSS; host cell line not named in the record; reference of the full effect not given here; AID 624414; 0.12% of 410,000 active; in the data active = activation above about 50%; inconclusive = about 30% to 50%; inactive = below about 30%; note: 0% is about no effect; the text of the record puts the active cut at 80%
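Agonist activity was taken from a 110 s kinetic Ca2+ dye read on the FDSS after pinning compounds onto TRPML1-DL cells. The cells were seeded at 1,500/well with Tet inducer, incubated about 16 h, then dye-loaded at room temperature.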
CtBP-E1A inh: blocks the CtBP interaction with E1A; AlphaScreen GST-E1A/His-CtBP binding, 1536-well; active compounds read low; control for the full effect not named in the record; activity change, % (test concentration not listed); 0.49% of 340,000 active; AID 651724; in the data active means activity change below about -65%; inconclusive means about -30% to -65%; inactive means above about -30%; note: % is set by controls: 0 for no effect and ±100 for the full control effect
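In 5 uL wells, 23 nL compound meets equimolar GST-E1A and His-CtBP (5X stock 125 nM each) for 2 h, 37 °C. Beads (5X, 50 ug/mL) then 1 h, 37 °C, dark.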
Six1-Eya2 inh: inhibitors of human Six1/Eya2 interaction | AlphaScreen GST-Six1/His-Eya2 binding, biochemical; active compounds read low; control for the full effect not named in the record | activity change, % (concentration not given with the values) | 0.56% of 360,000 active | Q15475+O00167; in the data active = activity change below about -65%; inconclusive = about -30% to -65%; inactive = above about -30%; note: % is set by controls: 0 for no effect and ±100 for the full control effect
Target sequence (O00167 whole entry, looked up): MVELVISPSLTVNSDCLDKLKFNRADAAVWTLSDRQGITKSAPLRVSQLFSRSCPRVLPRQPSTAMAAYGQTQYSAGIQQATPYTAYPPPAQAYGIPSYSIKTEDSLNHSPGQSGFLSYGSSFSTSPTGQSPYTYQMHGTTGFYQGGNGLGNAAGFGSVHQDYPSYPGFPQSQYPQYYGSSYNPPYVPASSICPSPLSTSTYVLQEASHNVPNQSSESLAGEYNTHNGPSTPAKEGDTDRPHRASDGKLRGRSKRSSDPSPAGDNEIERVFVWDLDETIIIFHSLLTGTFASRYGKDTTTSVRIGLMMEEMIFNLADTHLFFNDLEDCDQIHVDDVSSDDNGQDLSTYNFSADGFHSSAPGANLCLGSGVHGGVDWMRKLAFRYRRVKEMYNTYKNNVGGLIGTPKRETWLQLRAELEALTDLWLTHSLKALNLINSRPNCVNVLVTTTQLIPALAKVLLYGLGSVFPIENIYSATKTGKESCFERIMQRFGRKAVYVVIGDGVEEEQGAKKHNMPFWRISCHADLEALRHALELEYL
Target sequence (Q15475 whole entry, looked up): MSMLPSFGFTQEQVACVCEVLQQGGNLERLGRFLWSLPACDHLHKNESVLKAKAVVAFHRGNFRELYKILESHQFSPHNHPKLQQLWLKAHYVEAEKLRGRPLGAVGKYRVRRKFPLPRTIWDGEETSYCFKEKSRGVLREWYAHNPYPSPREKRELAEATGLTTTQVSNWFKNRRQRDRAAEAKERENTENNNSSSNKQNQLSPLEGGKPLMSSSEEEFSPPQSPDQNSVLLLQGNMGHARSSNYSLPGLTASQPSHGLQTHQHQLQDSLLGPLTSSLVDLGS
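Six1/Eya2 binding was read as AlphaScreen signal after compounds were pinned into GST-Six1 plus His-tagged Eya2 (5X stock 250/500 nM) in pH 8.0 Tris/NaCl/TCEP buffer, beads added, then incubated 1 h, 37 C, dark.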
TRPV1 PAM: human TRPV1 potentiation | Q8NER1 | TRPV1-expressing cells, Fluo-8 calcium influx, capsaicin EC20 potentiation; host cell line not named in the record; control for the full effect not named in the record | potentiation, % at 8.33 µM | 0.02% of 320,000 active | AID 540277; active means potentiation above 80%; inconclusive means 30% to 80%; inactive means below 30%; note: 0% is about no effect
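TRPV1-expressing cells were cultured overnight at 35.5C and loaded with Fluo-8 calcium dye for 40 to 90 min at room temperature. After a 10 s baseline, compound was added and calcium influx was read kinetically for 3 min (ex 480/em 520 nm).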
The depositor's hits bear a star; u = inconclusive; x = no result given. Rows were taken by chance; 0.95% or so of the library scored in one or more.

SMILES	D2 PAM	TRPML1 inh	TRPML1 agonist	CtBP-E1A inh	Six1-Eya2 inh	TRPV1 PAM
Cc1ccc(NC(=O)COC(=O)/C=C/c2cccs2)cc1	0	37	3.0	0	7	-8
CC(C)(C)c1csc(NC(=O)C2COc3ccccc3O2)n1 (centres undefined)	-9	-16	0.0	2	-4	-7
CC(C)c1nc(SCC(=O)N2CC(=O)Nc3ccccc32)c2ccccc2n1	1	-9	-1.6	0	-9	-7
COc1ccc(Cl)cc1NC(=O)CCN1C(=O)NC(C)(C)C1=O	-4	10	-0.6	10	-3	2
N#Cc1c(C(F)(F)F)cc(-c2ccco2)nc1SCc1ccncc1	26	3	7.0	12	9	-1
CC(C)CNc1nnnc2c1sc1nc(N3CCOCC3)c3c(c12)CCCC3	1	-11	0.9	2	-1	-13
COC(=O)C1=C(C(=O)OC)C(c2cc(Br)ccc2O)c2sc(=O)[nH]c2S1 (centres undefined)	-2	-18	0.2	-13	-20	10
COc1ccccc1N1CCN(C2CCCN(C(=O)c3csc(C)n3)C2)CC1 (centres undefined)	-30	-13	-0.1	-3	4	-7
CNC(=S)NNS(=O)(=O)c1ccc(OC)cc1OC	-5	21	-0.4	9	7	-3
Cc1ccc(S(=O)(=O)NCC(c2ccccc2)N2CCCCC2)cc1 (centres undefined)	-6	-9	1.9	-1	-1	x
CCCOc1nc2ccccc2cc1/C=C/C(=O)O	-3	-9	-0.1	16	1	-4
Cc1cccc(CC2CC(=O)N(c3ccc([N+](=O)[O-])cc3)C2=O)c1 (centres undefined)	0	10	0.6	8	-3	-13
CCOC(=O)C(OC(=O)c1sc(=S)n(C)c1C)C(C)=O (centres undefined)	-41	-3	-0.6	5	6	3
COC(=O)c1sc2ccccc2c1NC(=O)c1ccc(S(=O)(=O)N2CCCCC2C)cc1 (centres undefined)	-13	28	0.1	21	9	4
COCCNC(=O)c1ccccc1NC(=O)Cc1ccccc1	-4	-4	0.0	-7	3	-10
NNC(=O)c1c(O)c2cccc3c2n(c1=O)CCC3	4	-29	1.5	-1	2	-2
Cc1ccc(-c2nnc(SCC(=O)OC(C)C)n2N)cc1	-5	5	-0.3	0	2	-3
O=C1CC(C(=O)Nc2ccc(F)cc2)S/C(=N\N=C\c2ccco2)N1 (centres undefined)	-5	-22	-0.1	6	5	-7
N#Cc1ccc(C(=O)N2CCCC(c3cc(C(=O)NCc4cccnc4)no3)C2)cc1 (centres undefined)	-1	x	-0.8	3	8	x
CCOC(=O)c1c(C)oc2cc(Br)c(OC(=O)N3CCOCC3)cc12	-17	3	0.1	2	-2	-8
COc1cccc(NC(=O)C/C(C)=N/NC(=O)c2ccccc2Cl)c1	-7	-25	0.8	x	-2	2
CN(C)C=C1C(=O)c2ccccc2C1=O	28	2	1.2	10	-1	10
Cc1ccc(NS(=O)(=O)c2c(C)[nH]c(C)c2C(=O)N2CCCCC2)cc1C	3	-7	-0.4	3	0	0
Cc1nc2c(o1)C(=O)c1ccccc1C2=Nc1ccccc1	51*	-6	1.4	-4	-3	x
O=C(NCc1ccco1)C1CCN(c2nnc(-n3cccc3)s2)CC1	1	-9	-0.3	0	-8	4

Ordered by molecular weight (lowest first): 16 of the compounds above
SMILES	D2 PAM	TRPML1 inh	TRPML1 agonist	CtBP-E1A inh	Six1-Eya2 inh	TRPV1 PAM
NNC(=O)c1c(O)c2cccc3c2n(c1=O)CCC3	4	-29	1.5	-1	2	-2
Cc1nc2c(o1)C(=O)c1ccccc1C2=Nc1ccccc1	51*	-6	1.4	-4	-3	x
Cc1ccc(NC(=O)COC(=O)/C=C/c2cccs2)cc1	0	37	3.0	0	7	-8
CNC(=S)NNS(=O)(=O)c1ccc(OC)cc1OC	-5	21	-0.4	9	7	-3
Cc1ccc(-c2nnc(SCC(=O)OC(C)C)n2N)cc1	-5	5	-0.3	0	2	-3
CCOC(=O)C(OC(=O)c1sc(=S)n(C)c1C)C(C)=O (centres undefined)	-41	-3	-0.6	5	6	3
CC(C)(C)c1csc(NC(=O)C2COc3ccccc3O2)n1 (centres undefined)	-9	-16	0.0	2	-4	-7
Cc1cccc(CC2CC(=O)N(c3ccc([N+](=O)[O-])cc3)C2=O)c1 (centres undefined)	0	10	0.6	8	-3	-13
COc1ccc(Cl)cc1NC(=O)CCN1C(=O)NC(C)(C)C1=O	-4	10	-0.6	10	-3	2
COc1cccc(NC(=O)C/C(C)=N/NC(=O)c2ccccc2Cl)c1	-7	-25	0.8	x	-2	2
Cc1ccc(NS(=O)(=O)c2c(C)[nH]c(C)c2C(=O)N2CCCCC2)cc1C	3	-7	-0.4	3	0	0
COc1ccccc1N1CCN(C2CCCN(C(=O)c3csc(C)n3)C2)CC1 (centres undefined)	-30	-13	-0.1	-3	4	-7
CCOC(=O)c1c(C)oc2cc(Br)c(OC(=O)N3CCOCC3)cc12	-17	3	0.1	2	-2	-8
N#Cc1ccc(C(=O)N2CCCC(c3cc(C(=O)NCc4cccnc4)no3)C2)cc1 (centres undefined)	-1	x	-0.8	3	8	x
COC(=O)C1=C(C(=O)OC)C(c2cc(Br)ccc2O)c2sc(=O)[nH]c2S1 (centres undefined)	-2	-18	0.2	-13	-20	10
COC(=O)c1sc2ccccc2c1NC(=O)c1ccc(S(=O)(=O)N2CCCCC2C)cc1 (centres undefined)	-13	28	0.1	21	9	4

Further structures follow:
SMILES	D2 PAM	TRPML1 inh	TRPML1 agonist	CtBP-E1A inh	Six1-Eya2 inh	TRPV1 PAM
O=C(COC(=O)Cc1ccc(Br)cc1)Nc1ccc(Cl)cn1	3	-11	1.4	15	9	x
CCC(C)(C)NC(=O)C1CCCN1C(=O)NC1CCCCC1 (centres undefined)	0	-16	-0.7	5	12	3
CSCCC(NS(=O)(=O)c1ccc(C)c(C(=O)O)c1)C(=O)O (centres undefined)	-2	-1	-0.6	3	-1	4
CC1(C)OC(=O)N(c2cccnc2)C1(C)O (centres undefined)	9	-3	-0.4	-4	9	15
CC1CCN(C(=O)/C(=C\c2ccccc2F)NC(=O)c2ccccc2)CC1	-2	5	0.8	0	1	-17
O=C(c1ccco1)N1CCN(C(=O)c2ccc(COc3ccc(F)cc3)o2)CC1	-8	-14	-0.4	-2	7	-5
Cc1ccc(S(=O)(=O)N2CCOCC2)cc1NC(=O)c1cc2c(s1)CCC2	-5	-1	0.8	-4	-7	-9
Cc1cccc(N(C(=O)CNC(=O)c2ccco2)C(C(=O)NC2CCCCC2)c2cccnc2)c1 (centres undefined)	-5	2	-0.8	3	0	8
COc1ccc(CN2C(=O)CS/C2=N/N=C/c2cccs2)cc1	1	3	3.1	2	1	6
O=C1CCC(C(=O)N(Cc2cccs2)C2(C(=O)NC3CCCCC3)CCCCC2)N1 (centres undefined)	-4	-5	-0.2	11	8	10
CCC1(c2ccc(F)cc2)NC(=O)N(CC(=O)N2CCc3ccccc3C2)C1=O (centres undefined)	-6	3	0.5	-11	6	11
CC(C)CC1C(=O)N(Cc2cn(CCC3OCCO3)nn2)CCS(=O)(=O)N1Cc1ccc(-c2cccc(N(C)C)c2)cc1 (centres undefined)	-7	0	1.5	-10	u	x
CC(=O)Nc1ccc2nc(C)n(Cc3ccc(Cl)cc3)c(=O)c2c1	-4	0	-0.8	-3	-7	5
C=CCSC1=NC(N)=C(C#N)C2(CCCCC2)C1C(N)=O (centres undefined)	8	2	0.1	-6	0	5
Cc1ccc(-c2nc(CS(=O)CC(=O)NCc3ccccn3)c(C)o2)cc1 (centres undefined)	-1	-12	-0.2	-2	0	2
Cc1cccc(OCC(=O)OCC(=O)NCC2CCCO2)c1C (centres undefined)	15	-6	-1.1	x	1	-17
Cc1cccc(N2CCN(c3cccc(C)c3)C2c2cccnc2)c1	-4	-4	0.3	-12	-22	-20
COCCNC(=S)N1CCC(C(=O)c2ccc(F)cc2)CC1	-30	12	-0.6	x	9	x
CC(C)(C)NC(=O)Nc1ccc(Cn2cc(C(F)(F)F)ccc2=O)cc1	-7	10	0.6	3	8	22
N#Cc1c2n(c(=S)n(-c3ccccc3[N+](=O)[O-])c1=O)CCCCC2	-5	-9	0.8	15	6	0
O=C(NC1CCCCC1)C(Cc1ccccc1)N1C(=O)C2C3CCC(C3)C2C1=O (centres undefined)	24	-5	0.0	13	11	-19
COc1ccccc1CN(C)C(=O)COC(=O)c1c(C)noc1C	-5	4	2.4	-9	-11	x
C1CCC(C23CC4CC(CC(C4)C2)C3)NC1 (centres undefined)	-5	0	-0.9	-24	7	6
O=C(/C=C/c1ccc(S(=O)(=O)N2CCOCC2)cc1)NC(=S)Nc1ccc(Cl)cc1Cl	-2	21	2.3	-8	0	-8
CN(CC(=O)Nc1ccccc1C(=O)NC1CC1)Cc1cccs1	1	5	-0.6	2	3	-18
Carrying on.
SMILES	D2 PAM	TRPML1 inh	TRPML1 agonist	CtBP-E1A inh	Six1-Eya2 inh	TRPV1 PAM
O=C(N/N=C/c1ccc([N+](=O)[O-])o1)c1ccc(O)cc1	19	2	-0.2	u	-27	-12
S=c1[nH]nc(COc2ccccc2)n1/N=C/C(Cl)=C/c1ccccc1	-13	12	2.6	9	-9	6
C=CCc1ccc(OCCCCCN2CCOCC2)c(OC)c1	-51	9	0.9	-17	-21	2
Cc1ccc(S(=O)(=O)NCC(=O)OCC(=O)N2CCc3ccccc32)cc1	-5	20	1.9	-2	4	3
COc1cc(CCN2C(=O)c3cccc4cccc(c34)C2=O)c(S(=O)(=O)N2CCCCCC2)cc1OC	12	-6	2.0	-6	5	9
CCCN(CCC)CCNC(=O)Cn1cnc2sc(C)c(S(=O)(=O)N3CCOCC3)c2c1=O	-25	2	-0.2	2	19	x
N/C(=N\OC(=O)COc1ccccc1)c1ccc(Cl)cc1	-1	2	-0.7	15	61	-2
Cc1ccc2cc(/C=N/NC(=O)c3ccccc3O)c(Cl)nc2c1	-11	-9	0.1	-12	-12	16
COc1ccc(NC(=O)c2cc(-c3cc(C)cc(F)c3)n[nH]2)cc1OC	1	x	-1.0	-12	-12	x
O=C(NCc1ccc(F)cc1)c1cc(S(=O)(=O)N2CCCCC2)c[nH]1	-9	-2	-1.2	0	-2	16
CC(=O)c1cccc(NC(=S)NC(=O)c2cncc(Br)c2)c1	-14	x	x	x	9	9
CN(CC(=O)NCc1ccccc1)Cc1cccc(F)c1	-11	17	-1.4	-15	9	-20
O=C1CN(C(=O)/C=C/c2ccc(Br)cc2)CCN1	-3	5	-0.7	-1	5	-23
CCN(C(=O)CSc1nccc(=O)[nH]1)C1CCCCC1	-4	22	0.0	-21	2	x
CCCCCC(=O)Nc1ccc(C(=O)CN2C(=O)NC3(CCCCCC3)C2=O)cc1	-1	13	0.6	1	9	0
Nc1ccccc1OCP(=O)(c1ccccc1)c1ccccc1	-4	-2	1.4	x	-3	19
COc1ccc(C(=O)NCC(=O)OCC(=O)N2N=C(c3ccc(Cl)cc3)CC2c2ccco2)cc1OC (centres undefined)	-14	0	-0.1	x	-7	4
CC(C)[C@H]1COCCS(=O)(=O)N1Cc1ccccc1-c1ccc(F)cc1	-5	0	1.1	5	1	x
c1coc(CNc2nc(-c3ccncc3)cs2)c1	13	9	-0.4	0	-3	-3
O=C1C=C(C#Cc2ccccc2)C[C@@H](c2ccc(F)cc2)C1	-5	-6	-0.1	0	-1	x

Compound activity deposited in PubChem BioAssay by National Center for Advancing Translational Sciences (NCATS).
